Screening results: PubChem, National Center for Advancing Translational Sciences (NCATS)
AmpC nodet inh – Promiscuous and Specific Inhibitors of AmpC Beta-Lactamase (assay without detergent); AmpC nitrocefin hydrolysis, absorbance 480 nm, no detergent; potencies from a single point are estimates; 71,000 compounds, 1.8% hits; P00811; Potency, µM (doses to about 28.7 µM), for the others: at the top dose activity change, negative = inhibition; active = falling curve, for most hits resting on a single point; inconclusive = weak or doubtful change; inactive = flat or rising curve; note: % of control where 0% means no effect; about half of the hits show no inhibition at the top dose; a quarter of the inactives give rising signals
Target sequence (P00811 whole entry, looked up): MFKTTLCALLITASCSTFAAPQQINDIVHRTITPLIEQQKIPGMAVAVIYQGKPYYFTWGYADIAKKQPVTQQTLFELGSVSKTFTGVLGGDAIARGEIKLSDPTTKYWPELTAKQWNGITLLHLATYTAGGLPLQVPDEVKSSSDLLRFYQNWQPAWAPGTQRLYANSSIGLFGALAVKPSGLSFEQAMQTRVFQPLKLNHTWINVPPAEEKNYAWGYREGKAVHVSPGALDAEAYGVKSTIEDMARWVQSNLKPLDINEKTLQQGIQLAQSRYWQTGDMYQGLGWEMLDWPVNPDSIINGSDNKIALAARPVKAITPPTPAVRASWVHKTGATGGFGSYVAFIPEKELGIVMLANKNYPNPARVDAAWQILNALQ
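Enzyme, pH 7.0 phosphate. Compound titrations were pre-incubated with AmpC for 15 min at room temperature before nitrocefin (stock 800 uM) addition; product formation was recorded at 480 nm every 20 s for 4 min.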
The depositor's hits bear a star; [ ] = another dose, or the depositor's remark. Potency is the fitted concentration of half-maximal effect. An excerpt; count on the stated rates, not on these rows.

Structure	AmpC nodet inh
CC1(C)CC(=O)C(C=Nc2ccccc2C(=O)O)=C(O)C1	-10.7%
Cn1c(=O)c2c(ncn2CC(=O)Nc2cc(Cl)c(Cl)cc2Cl)n(C)c1=O	31.7%
CCCCCCn1c(CN2CCN(C)CC2)nc2c1c(=O)n(C)c(=O)n2C	6.8%
CCc1nc(NC(C)C)c2oc3ccccc3c2n1	19.2%
O=C(C1CCN(S(=O)(=O)c2cccc3cccnc23)CC1)N1CCn2c1nc1ccccc12	27.1%
Cc1nc2nc(SCC(=O)NCc3ccco3)nn2c(C)c1Cc1ccccc1	31.6%
COc1ccc2c(c1)[C@]1(C)CCC[C@](C)(CO)[C@@H]1CC2	20.8%
COc1cccc(NC(=O)C2C3C=CC4(O3)C2C(=O)N(C(C)C)C4C(=O)NC2CCCCC2C)c1 (stereo unspecified)	24.0%
Cn1nnnc1SCSc1nnnn1C	-5.2%
O=C1CC(c2ccncc2)c2cc3c(cc2N1)OCO3 (stereo unspecified)	-12.5%
COCCOC(=O)c1c(C)oc2ccc(OC(=O)N(C)C)cc12	29.7%
COc1cccc(CNC(=O)c2ccc3nc[nH]c3c2)c1	-2.4%
Cc1c(Cl)cccc1Nc1ccccc1C(=O)O	-21.2%[12.8 µM]
CCOC(=O)CSc1nnc(CNc2ccccc2Cl)n1-c1ccccc1	66.2%
c1cncc(CNc2nc(N3CCOCC3)nc(N3CCOCC3)n2)c1	11.8%
OC(COc1ccc(Br)cc1)CN1CCOCC1 (stereo unspecified)	2.4%
CSCC[C@@H](Nc1nc(-c2ccccc2)nc2c1oc1ccccc12)C(=O)O	-5.9%
C=CCOC(C)=O	-5.4%
CCOc1ccccc1N1CCN(C(=O)c2ccccc2)CC1	37.6%
O=C(CSc1nnc(-c2cnccn2)n1Cc1ccco1)c1ccc2ccccc2c1	78.6%
CC(=O)NC1(C(F)(F)F)C(=O)Nc2c1c(=O)[nH]c(=O)n2Cc1ccco1 (stereo unspecified)	-1.3%
Cc1cccc(-n2nnnc2SCc2csc(-c3ccccc3)n2)c1	-0.7%
CCn1c(SCC(=O)Nc2nc(C)cs2)nnc1C(NC(=O)c1ccccc1Cl)C(C)C (stereo unspecified)	55.7%
O=C(c1cccc(F)c1)N1CCC2(CCCN(c3ccccn3)C2)CC1	63.6%
Cc1ccc(C)c(SCC(=O)OCC(=O)c2ccco2)c1	-4.1%
Nc1ncnc2nc(-c3ccc(C[P+](c4ccccc4)(c4ccccc4)c4ccccc4)cc3)[nH]c12	-2.4%[5.75 µM]
COc1ccc(CNc2oc(C)nc2C#N)cc1	-8.4%
CCn1c(SCC(=O)NCc2ccc3c(c2)OCO3)nnc1-c1c[nH]c2ccccc12	1.4%
COC(=O)Cn1c(=NC(=O)CSCC(=O)Nc2cc(C)on2)sc2ccccc21	-6.3%
Cn1c(=N)n(CC(O)c2ccco2)c2ccccc21 (stereo unspecified)	-8.0%
COCCCN1C(=O)C(O)=C(C(C)=O)C1c1ccccn1 (stereo unspecified)	-6.4%
CC(C)(NCc1ccccc1Cl)C(=O)O	-5.1%
Cc1cc(C)nc(N2CCN(c3ncnc4c3oc3ccccc34)CC2)n1	28.0%
Cn1c(C(=O)N2CCN(c3ccc(Cl)cc3)CC2)cc2c(=O)n(C)c3ccccc3c21	3.98µM*[single pt active]
COc1ccc2[nH]cc(CCNc3ncncc3-c3ccc(N(C)C)cc3)c2c1	25.2%
C[C@H](NC[C@H](O)CP(=O)(O)Cc1ccccc1)c1ccc(Cl)c(Cl)c1	45.9%

Continued, starting with the last 4 of the part before.
Structure	AmpC nodet inh
Cc1cc(C)nc(N2CCN(c3ncnc4c3oc3ccccc34)CC2)n1	28.0%
Cn1c(C(=O)N2CCN(c3ccc(Cl)cc3)CC2)cc2c(=O)n(C)c3ccccc3c21	3.98µM*[single pt active]
COc1ccc2[nH]cc(CCNc3ncncc3-c3ccc(N(C)C)cc3)c2c1	25.2%
C[C@H](NC[C@H](O)CP(=O)(O)Cc1ccccc1)c1ccc(Cl)c(Cl)c1	45.9%
CC(=O)O[C@H]1CC[C@@]2(C)C(=CC[C@@H]3[C@H]2CC[C@]2(C)C(=O)CC[C@H]32)C1	24.8%[12.8 µM]
Cc1cccc(-n2ccnc2SCC(=O)Nc2nccs2)c1C	6.3%
Cc1cc(C(=O)Cn2nnc3ccccc3c2=O)c(C)n1Cc1cccs1	11.9%
O=C(NCC1COc2ccccc2O1)c1ccccc1 (stereo unspecified)	-17.7%
c1ccc(CCN2CCN(c3ncnc4c3cnn4-c3ccccc3)CC2)cc1	80.8%
c1nc(N2CCOCC2)c2[nH]cnc2n1	-9.1%
Cc1nnc(SCCn2c(N3CCN(Cc4ccccc4)CC3)nc3c2c(=O)[nH]c(=O)n3C)s1	54.8%
CCNS(=O)(=O)c1c(C)cc(N2CCCC2=O)cc1C	2.7%
CCCCN(C)CCCNC(=O)c1cccc(N2CCCC2=O)c1	2.6%
CC1(C)NC(=O)N(CC(O)COc2ccccc2-c2ccccc2)C1=O (stereo unspecified)	70.4%
CCOC(=O)CNC(=O)CSc1nnc(COc2ccc(Cl)cc2)n1CC	52.9%
COc1cc(-c2nc(S(=O)(=O)c3ccc(C)cc3)c(N3CCOCC3)o2)cc(OC)c1OC	122.7%

Entries listed so far with fluorine (two):
Structure	AmpC nodet inh
CC(=O)NC1(C(F)(F)F)C(=O)Nc2c1c(=O)[nH]c(=O)n2Cc1ccco1 (stereo unspecified)	-1.3%
O=C(c1cccc(F)c1)N1CCC2(CCCN(c3ccccn3)C2)CC1	63.6%

(cont.)
Structure	AmpC nodet inh
O=C1C[C@H](c2ccccc2)Oc2cc(O)cc(O)c21	-17.6%
O=C(Nc1cc(C(F)(F)F)ccc1N1CCCCC1)c1ccco1	-0.4%
O=C(CSc1nnc(Cc2cccs2)n1-c1ccccc1)NCc1ccc2c(c1)OCO2	-5.9%
O=C(Nc1ccc(S(=O)(=O)NCc2ccco2)cc1)c1ccc2ccccc2n1	-20.8%
N#Cc1ccc(OCc2nnc(SCC(=O)N3CCCc4ccccc43)n2-c2ccccc2)cc1	61.0%
CCOC(=O)c1cc2c(=O)n3ccccc3nc2n(CCOC)c1=NC(=O)c1ccncc1	27.4%
COc1ccc(C2(C(=O)Nc3cc(C)on3)CCOCC2)cc1	-6.0%
O=C(CSc1nc2ccccc2o1)Nc1ccc(N2CCOCC2)c(Cl)c1	10.5%
O=C(CNC(=O)c1cccs1)NC1=NCCS1	-4.4%
CN1C(=O)CC(N2CCN(C(c3ccccc3)c3ccccc3)CC2)C1=O (stereo unspecified)	85.7%
CCOC(=O)N1CCN(Cc2nc3c(c(=O)n(C)c(=O)n3C)n2Cc2ccccc2C)CC1	127.0%
Nc1cc(=O)[nH]c(=O)n1Cc1ccco1	7.6%
CC1CN(C2CCCCC2)c2nc3c(c(=O)n(C)c(=O)n3C)n2C1 (stereo unspecified)	60.1%
Cc1ccc(C#N)cc1	-14.6%
NS(=O)(=O)c1ccc(NCc2c(F)cccc2Cl)cc1	1.4%
Cc1cc(N2C(=O)C3C4C=CC(C4)C3C2=O)ccc1Br (stereo unspecified)	-8.1%
O=C(CN(CCc1ccccc1)C(=O)CNS(=O)(=O)c1ccccc1)NCC1CCCO1 (stereo unspecified)	31.2%
CCCC1(C(=O)OC)C=C2C(=C(C)C(=O)C2C)CN1 (stereo unspecified)	14.5%
COC(=O)C1=C(C)OC(N)=C(C#N)C1c1cc(OC)c(OCC(N)=O)cc1Cl (stereo unspecified)	61.0%
CCN(CC)S(=O)(=O)c1ccc(NS(=O)(=O)c2cccc(C)c2)cc1	-12.3%
CCCc1nc2ccccc2n2cc3c(=O)n(C)c(=O)n(C)c3c12	0.2%
Cc1cccn2c(=O)c3cc(C#N)c(=O)n(CCCN4CCOCC4)c3nc12	20.1%
COC(=O)c1ccc2nc(C(F)(F)F)[nH]c2c1	-6.7%
COS(C)(=O)=O	0.0%
COc1ccc(NC(=O)CSc2nnc(-c3cccs3)n2C)cc1OC	9.1%
Cc1cc(NC(=O)C2CCCCC2)nc2c1c(=O)oc1ccccc12	0.6%
Nc1nc(-c2ccco2)c(-c2ccco2)s1	-22.2%
Cc1ccc(C)c(N(CC(=O)NCc2ccc3c(c2)OCO3)C(=O)CCC(=O)Nc2ccccn2)c1	62.2%
O=C(CN1CCN(CC(=O)Nc2ccccn2)CC1)Nc1ccccn1	15.9%
OCCN1CN=C(Nc2nc3ccccc3s2)NC1	-4.1%
CC1CCCN(S(=O)(=O)c2cccc(-c3cn4cccnc4n3)c2)C1 (stereo unspecified)	21.0%
CON(C)c1nc(OCCNC(=O)COc2ccc(Cl)cc2C)nc(N(C)C)n1	139.6%
Cc1ccc(-c2noc(C3CCCN(C(=O)c4c(F)cccc4F)C3)n2)cc1 (stereo unspecified)	88.3%
CCCCn1c(O)c(C(CC)=Nc2ccc(C(=O)O)cc2)c(=O)[nH]c1=O	-11.0%
O=C(Cn1cc2c(n1)CCCC2)N1CCOCC1	-11.4%
O=S(=O)(Nc1ncnc2c1oc1ccccc12)c1ccc(Cl)s1	-13.3%
O=C1c2ccccc2C(=O)N1CCCCSc1nnc2ccccn12	15.4%
C=CCNc1nc(-c2ccccc2)nc(-n2ccnc2)n1	-8.0%
CCOC(=O)N1CCN(S(=O)(=O)c2ccc(OC)c(Cl)c2Cl)CC1	104.2%
O=C(Cn1cc(C(F)(F)F)ccc1=O)N1CCN(S(=O)(=O)c2ccccc2)CC1	11.5%
O=C(Nc1cccc2ccccc12)N1CCN(c2ccccc2)CC1	-4.7%
COc1ccc(C(=O)NC2CCCCC2)cc1S(=O)(=O)N1CCCC1	13.4%
O=c1oc(-c2cccs2)nc2sc3c(c12)CCCCC3	-4.9%
O=C(C1=C(O)C(=O)N(CCN2CCOCC2)C1c1cccs1)c1cc2ccccc2o1 (stereo unspecified)	-0.6%
COCCNC(=O)C(c1ccncc1)N(C(=O)Cn1nnc2ccccc21)c1ccc(OC)cc1 (stereo unspecified)	30.0%
COc1ccc(-c2nc(C(N)=O)c3[nH]c(=O)n(-c4cccc(C)c4)c3n2)c(OC)c1	135.3%
Fc1ccccc1N1CCN(C2CCN(Cc3c[nH]c4ccccc34)CC2)CC1	-3.9%
CC(=O)NC(CCS(C)(=O)=O)C(=O)Nc1cccc(Cl)c1Cl (stereo unspecified)	-5.4%
Cc1sc2ncnc(OCC(=O)N3CCN(S(=O)(=O)c4ccccc4)CC3)c2c1C	40.2%
CC(c1nnc(Sc2nnnn2-c2ccccc2)n1-c1ccc(F)cc1)N(C)C (stereo unspecified)	12.1%
CC(O)c1nc2ccccc2n1C/C=C/c1ccccc1 (stereo unspecified)	58.0%
O=C(O)c1cccc(Nc2ncnc3ccccc23)c1	2.1%
CC(=O)C1=C(O)C(=O)N(CCc2c[nH]c3ccccc23)C1c1cccc(O)c1 (stereo unspecified)	0.6%
CC(C)(C)n1nnnc1C(c1cccs1)N1CCCc2ccccc21 (stereo unspecified)	17.2%
FC(F)(F)c1ccccc1-c1nccc(N2CCNCC2)n1	1.0%
CC(C)NC(=O)c1nc2ccccc2s1	-22.5%
O=C1c2ccccc2C(Nc2ccc3c(c2)OCCO3)N1c1ccccn1 (stereo unspecified)	13.9%
CCCCOc1ccc(S(=O)(=O)N2CCCCCC2)cc1	-4.4%
COCCN(CCOC)Cc1c(O)ccc2c3c(c(=O)oc12)CCC3	9.3%
CCOC(=O)c1[nH]c(C)c(/C(O)=C2\C(=O)C(=O)N(CCCn3ccnc3)C2c2ccncc2)c1C (stereo unspecified)	-5.2%

The list goes on:
Structure	AmpC nodet inh
CCOC(=O)c1sc(=S)n(-c2ccccc2OC)c1N	4.9%
O=C(O)C1CC(=O)N(c2ccc(OCc3c(F)cccc3Cl)cc2)C1 (stereo unspecified)	2.8%
Cc1nnc(NC(=O)c2ccccc2Br)s1	-8.7%
Cc1nc2ccccn2c1/C(O)=C1\C(=O)C(=O)N(CCCn2ccnc2)C1c1ccncc1 (stereo unspecified)	0.6%
COc1ccc(NC(=O)C(CC(C)C)NC(=O)c2ccccc2C)cn1 (stereo unspecified)	-2.1%
Cn1c(N2CCC(C(N)=O)CC2)nc2c1c(=O)n(Cc1ccc(Cl)cc1)c(=O)n2C	118.0%
COc1ccc2[nH]c(=O)c(CN(CCO)C(=O)c3ccccc3F)cc2c1	1.9%
Cc1ccc(OCCNC(=O)c2ccccc2N)cc1	12.7%
CCCCC(NC(C)=O)c1nc2ccccc2[nH]1 (stereo unspecified)	4.0%
CCN1CCN(C(c2cccs2)C(C)NC(=O)CC(C)C)CC1 (stereo unspecified)	-6.1%
Cc1c(O)cccc1C(=O)N[C@@H](CSc1ccccc1)[C@H](O)CN1C[C@H]2CCCC[C@H]2C[C@H]1C(=O)NC(C)(C)C	41.3%
O=C(Nc1ccc(F)cc1F)c1cc2n(n1)C(C(F)(F)F)C1CCCCC1N2 (stereo unspecified)	-0.1%
Cc1sc(C(=O)NCc2cccnc2)c2nc(C)n(CC(=O)NCc3cccnc3)c(=O)c12	16.8%
COC(=O)CCCCCc1ccc(C(C)=O)s1	7.9%
COc1ccc(-c2cn[nH]c2N)c(OC)c1	-3.8%
CC(C)C[C@H](NC(=O)NCc1ccccc1Cl)C(=O)O	18.1%
